Screening results as filed in PubChem BioAssay.
AID504770: growth inhibitors of E. coli YBA685 in a screen for V. cholerae RctB (chromosome II replication) inhibitors; actives 0.27% (n = 130,000); E. coli YBA685 rctB-dependent plasmid, OD600 growth, 3 h; stronger effect = lower value; z-score (no concentration beside the values); AID 504770;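 active = z-score under -2 on both plates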;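 note: wells of about 30 µL received 100 nL stock; score is relative to mean and SD of the test wells; the first replicate is given; strong numbers were not always called active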
Ba CapD inh: CapD enzyme inhibition. actives 0.23% (n = 140,000). purified CapD enzyme, fluorescence intensity read-out; stronger effect = lower value; some hits fall short of the stated cut. z-score (concentration not given with the values). AID 492967;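 active = z-score under -4 in either of two replicates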;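 note: stock transfer was 100 nL into about 40 µL; score is relative to mean and spread of the plate; one replicate is shown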
* = called active by the depositor; nt = not tested or not shown. The order is random (roughly 0.41% active in at least one column).

SMILES	AID504770	Ba CapD inh
O=C(COC(=O)c1cccnc1Cl)c1ccc(F)cc1	0.6	-0.05
C/C(=N\O)c1ccc2c(c1)CCC2	1.7	0.61
CC1(C)CC2CC(C)(CN2c2ncnc3ccc(Br)cc23)C1 (stereo not given)	nt	0.91
Clc1ccccc1Nc1ncnc2ccc(Br)cc12	nt	0.58
Cc1cccc(N2CCN(CCN)CC2)c1C	1.6	nt
COc1cc(C(=O)N2CCC(c3c[nH]c4ccccc34)CC2)cc(OC)c1OC	nt	-0.4
CN(C)C(=O)Cn1c(=O)cnc2ccccc21	-0.9	nt
CC1CC(C)CN(C(=O)C(C)Sc2nnnn2-c2ccc(Cl)cc2)C1 (stereo not given)	-0.2	nt
Cc1c(C(=O)NCCc2ccc(S(N)(=O)=O)cc2)sc2nc(-c3ccccc3)cn12	-1.1	nt
CCOC(=O)CSc1nc2sc(C(=O)OCC)c(C)c2c(=O)n1Cc1cccs1	nt	-0.015
Cc1ccc(CCNc2ccccc2C)cn1	-0.95	0.45
COC(=O)c1ccc(NC(=O)CSC2=Nc3ccccc3C3CC=NN23)cc1 (stereo not given)	-0.65	nt
c1ccc(N/N=C(\C(=N/Nc2ccccc2)c2ccccc2)c2ccccc2)cc1	nt	-0.49
Cc1cccc2c(CCNC(=O)OCc3cccc(OCc4ccccc4)c3)c[nH]c12	nt	0.62
CN(C(=O)COC(=O)c1ccccc1NS(C)(=O)=O)C1(C#N)CCCCC1	0.15	nt
O=C1CCC/C(=N/NC(=O)c2ccc(NS(=O)(=O)c3cccs3)cc2)C1	0.1	nt
C=CCN(C(=O)CSc1cc(=O)n(CC)c2ccccc12)c1ccccc1	-0.35	0.84
CN(C)S(=O)(=O)c1ccc2oc3nnc(SCCCC(=O)N4CCOCC4)n3c2c1	-0.2	nt
COc1ccc(-c2nn3cnnc3s2)cc1	-0.25	1.7
COc1ccc(/C=N/NC(C)(C)C)cc1O	-0.4	nt
CCOC(=O)C1=C(C)N=c2s/c(=C\c3ccc(OC(C)=O)c(OCC)c3)c(=O)n2C1c1ccc(OC)c(OC)c1 (stereo not given)	nt	-0.35
O=C(CCN1CCC(c2ccccc2)C1)c1cccs1 (stereo not given)	-0.8	0.41
OCCCc1nc2ccc(Cl)cc2[nH]1	nt	0.69
Cc1cc(OCc2nnc(SCC(=O)OC(C)C)o2)ccc1Cl	0.35	nt
COc1ccc2oc(-c3ccc(NC(=S)NC(=O)COc4ccccc4)cc3)nc2c1	-0.4	29
CC(=O)Oc1ccc(N2C(=O)C3C4C=CC(C(OC(C)=O)OC(C)=O)(O4)C3C2=O)cc1 (stereo not given)	-0.45	-0.21
CC(C)c1ccc(S(=O)(=O)Nc2ccc3oc4c(c3c2)CCCC4)cc1	nt	-0.26
O=C1c2cc([N+](=O)[O-])ccc2-c2c(O)cc([N+](=O)[O-])cc21	nt	0.3
COCCNC(=O)c1ccc(Cn2c(SCc3ccncc3)nc3ccc(Br)cc3c2=O)cc1	nt	-0.92
CCOC(=O)c1cnc(-c2ccccc2)nc1NCc1ccccc1	-0.35	0.62
Cc1ccccc1C(=O)O/N=C1\C(=O)N(c2ccccc2)c2ccccc21	nt	0.1
CCN(CC)Cn1nc2c3c(cccc3c1=O)-c1ccccc1-2	-0.6	5
CCOc1ccc2nc(SCCNS(=O)(=O)c3cccc([N+](=O)[O-])c3)sc2c1	nt	-0.075
O=[N+]([O-])c1cccc(C2CC(c3ccccc3)=NN2S(=O)(=O)c2ccccc2)c1 (stereo not given)	nt	0.43
OC(CSc1ccccc1)CN1CCN(c2nccc(C(F)(F)F)n2)CC1 (stereo not given)	0.5	0.19
Cc1ccc(S(=O)(=O)N2CCN(CC(=O)c3c(C)[nH]c4ccccc34)CC2)cc1	-0.35	nt
CCS(=O)(=O)CCc1nnc(NC(=O)Nc2cccc(C(F)(F)F)c2)s1	1.6	5.7
CCS(=O)(=O)c1ccc(S(=O)(=O)CC)s1	-0.7	-0.33
CC1=C(C(=O)Nc2ccccc2)C(c2ccccc2Cl)n2ncnc2N1 (stereo not given)	-0.75	-1
CCN(CC)c1nc(C(F)(F)F)nc2c1nnn2Cc1ccccc1	-0.15	nt
CCOC(=O)C1=NN(c2ccc(C)cc2)C2C(=O)N(c3ccccc3Cl)C(=O)C12 (stereo not given)	nt	1.8
CN1CCN(S(=O)(=O)c2ccc(N)cc2)CC1	-0.25	0.09
Cn1cnnc1Sc1nc2ccccc2nc1Cl	-0.05	nt
COc1cc(NC(=O)Cn2nc(C(F)(F)F)c(Br)c2C)cc([N+](=O)[O-])c1	nt	-0.38
Cc1ccc2c(n1)sc1c(O)cc(=O)[nH]c12	0.55	8.1
CCOC(=O)N1CCC(NC(=O)c2cc(S(=O)(=O)NCCc3ccccc3)ccc2F)CC1	0.8	0.75
CCOC(=O)c1cnc2c(OC)cccc2c1N1CCN(c2ccccc2OC)CC1	nt	-0.1
CC1(C)CC(O)CC(C)(C)N1CC(O)COCc1ccccc1 (stereo not given)	2	0.12
O=C(CSc1nc(NCc2ccc(Cl)cc2)c2ccccc2n1)NCc1ccco1	nt	0.48
O=C(Cn1c(C(F)(F)F)nc2ccccc21)Nc1ccc(Cl)cc1	nt	-0.18
The listing continues:
SMILES	AID504770	Ba CapD inh
C=CCN(C)C1CC(=O)N(c2ccc(C)c(Cl)c2)C1=O (stereo not given)	-0.1	nt
CCOc1ccc(-n2c(=S)sc3c2nc(SCC(=O)NCc2ccccc2)n2c4ccccc4nc32)cc1	nt	4.5
N/C(=N\O)c1cc(Cl)cc(Cl)c1	1.6	0.18
COC(=O)CN1C(c2cc(OC)c(OC)c(OC)c2)=Nc2ccc(Cl)cc2C1c1ccccc1 (stereo not given)	nt	-0.23
CCOC(=O)c1c(C)[nH]c(-c2csc(C)n2)c1C	0.1	0.22
N#CC(c1cccc(C(F)(F)F)c1)N1CCOCC1 (stereo not given)	-1.1	-0.32
CC(C)(C)c1cc(NS(=O)(=O)c2ccc3c(c2)OCCO3)on1	1.3	nt
CCn1ccc(C(=O)NC2=C(C#N)CCC2)n1	0.95	-0.05
CC(Sc1nncn1C)C(=O)c1ccc(C(C)(C)C)cc1 (stereo not given)	0.4	nt
Cc1csc2sc(C=NCc3cccs3)c(C)c12	0.8	-0.085
CNC[C@@H](O)c1ccc(O)c(O)c1	-0.55	0.17
CC(=O)Nc1ccc(S(=O)(=O)N2CCCC(C(F)(F)F)C2)cc1 (stereo not given)	-1.2	-0.1
COC(=O)c1cc(NC(=O)CSc2nc3[nH]ncc3c(=O)n2-c2ccc(Cl)cc2)cc(C(=O)OC)c1	nt	0
Cc1cc(Cl)ccc1OCCCC(=O)Nc1ccccc1C(F)(F)F	0.45	-0.2
O=c1oc2c(-c3cc(Cl)cc(Cl)c3)cc(O)cc2s1	1	-0.47
O=C(CSc1nnc2sc3ccccc3n12)NC1CCCCC1	nt	-0.18
O=C(Nc1ccc(Cl)cc1)OCCNC(=O)c1cccc(Br)c1	nt	0.18
Cc1cc2nc3s/c(=C/c4ccc5c(c4)OCO5)c(=O)n3c2cc1C	-0.55	0.35
CC(C)CC(=O)n1nc(-c2cccnc2)nc1NCc1ccccc1	0.15	-0.33
O=C(CN1CC(C(=O)N2CCOCC2)Oc2ccccc21)Nc1ccccc1C(=O)NC1CCCC1 (stereo not given)	2.8	nt

Quoted at random: two entries already listed
SMILES	AID504770	Ba CapD inh
Cc1cccc2c(CCNC(=O)OCc3cccc(OCc4ccccc4)c3)c[nH]c12	nt	0.62
O=C1CCC/C(=N/NC(=O)c2ccc(NS(=O)(=O)c3cccs3)cc2)C1	0.1	nt

Further records.
SMILES	AID504770	Ba CapD inh
O=C(c1ccccc1)N1CCN(CC(O)COc2ccc(Cl)cc2Cl)CC1 (stereo not given)	0.85	nt
CC1(C)Cc2c(C#N)c(SCc3ccccc3)nc(N3CCOCC3)c2CO1	nt	-0.23
Cc1nn(-c2ccccc2)c(C)c1/C=C/C(=O)OCC(=O)Nc1c(C#N)oc2ccccc12	0.35	nt
O=C(O)c1cccc(S(=O)(=O)N2CCc3ccccc3C2)c1	0	0.38
Cc1c2c(n3c(nc4ccccc43)c1C#N)N(C1CCCC1)CC2	-0.3	nt
O=C(c1cc(-c2ccccc2)nc2ccccc12)N1CCN(Cc2ccc3c(c2)OCO3)CC1	nt	-0.2
O=C(c1c(F)cccc1F)N1CCN(c2ncc(-c3ccc(Cl)cc3)cn2)CC1	nt	-0.02
NNC(=O)/C(=C\c1ccccc1)CCO	-0.3	0.39
O=S(=O)(NCC12CC3CC(CC(C3)C1)C2)c1cccc2nsnc12	-0.45	0.68
COc1ccc(C(=O)CC(=O)Nc2ccccc2)cc1OC	-0.75	-0.62
COc1ccc(C=Nc2ccc(C)cc2C)cc1	-0.45	-0.22
COc1cc(C(=O)OCCCCN2C(=O)c3ccccc3C2=O)cc(OC)c1OC	-0.25	nt
O=C(O)CNc1nc(-c2ccccc2)c2cc(Br)ccc2n1	1	0.33
CCOC(=O)c1c(NC(=O)C(C)Sc2nnc(CNC(=O)c3ccc(C)c([N+](=O)[O-])c3)n2C)sc2c1CCC2 (stereo not given)	nt	-0.21
CCC(Oc1ccc(Br)cc1)C(=O)Nc1nccc(C)n1 (stereo not given)	-0.55	-0.14
CCc1ccc(NC(=O)CSc2ncnc3c2sc2ccccc23)cc1	-0.5	-0.39
COC(=O)C1=C(C)NC2=C(C(=O)CC(c3ccco3)C2)C1c1ccco1 (stereo not given)	0.35	-0.09
CCc1c(C#N)c(N)nc2sc(C(=O)Nc3ccc(Br)cc3)c(N)c12	-0.4	nt
O=C(CCCN1C(=O)/C(=C\c2ccco2)SC1=S)NC1CCCCC1	-0.05	nt
COc1ccc(C(CNC(=O)c2ccccc2)N(C)C)cc1 (stereo not given)	-1.4	nt
Cc1ccc(CSC2=NCCCN2)cc1	nt	0.4
Cc1c2c(c(C#N)c3nc4ccccc4n13)CCCC2	-0.45	nt
O=C(c1c[nH]c2ccc(S(=O)(=O)N(CCCN3CCOCC3)Cc3ccco3)cc2c1=O)N1CCc2ccccc21	nt	-0.7
O=C(Nc1ccc(Cl)cc1)OCCS(=O)(=O)c1ccc(C(F)(F)F)cn1	-0.45	0.52
CCC(=O)NCCc1cc2c(OC)ccc(OC)c2[nH]c1=O	0.15	-0.28
COC(=O)c1ccc(COC(=O)c2n[nH]c3ccccc23)o1	0.6	nt
Cc1cc(=O)oc2cc(OCc3nnc(-c4ccccc4)o3)ccc12	-0.4	4.3
Cc1cc(C)nc(-n2nc(C)cc2NC(=O)CNC(C)c2ccccc2)n1 (stereo not given)	1.1	nt
CCCOC(=O)c1ccc(NC(=O)CO/N=C/c2nc3cc(Cl)ccc3o2)cc1	1.3	nt
CCOC(=O)CN1C(=O)C(O)(CC(=O)c2cccs2)c2ccccc21 (stereo not given)	nt	-0.04
Cc1oncc1C(=O)NC1CCCCC1	-0.5	0.025
COc1ccc(Br)cc1C1N(c2ccc(C)cc2)CCN1c1ccc(C)cc1	nt	-0.06
CC(/C=C/c1ccc(Cl)cc1)=N\O	-0.3	nt
CCN1CCN(C(c2cccs2)C(C)NS(=O)(=O)c2ccc(C)cc2)CC1 (stereo not given)	-1.1	1
O=C1NC(=O)/C(=C/c2ccc(OS(=O)(=O)c3ccc(Cl)cc3)cc2)N1	nt	-0.09
O=S(=O)(Nc1ccccc1Cl)c1ccccc1	-0.3	0.6
CCn1c2ccccc2c2cc(CN3CCC(NC(=O)OCc4cc(OC)c(OC)cc4[N+](=O)[O-])C3)ccc21 (stereo not given)	nt	1.4
COC(=O)c1ccccc1NC(=O)c1cc2cccnc2n(C)c1=O	-0.9	nt
Cc1ccc(S(=O)(=O)Nc2ccc(Br)cc2C(NCC(=O)O)c2ccccc2)cc1 (stereo not given)	0.25	0.5
NC(N)=Nc1nc(-c2ccc(-c3ccccc3)cc2)cs1	-0.05	91
CC(=O)N1CCN(CC(O)Cn2c3ccccc3c3ccccc32)CC1 (stereo not given)	nt	9
CCOC(=O)c1ccc(NC(=O)C2CC(=O)N(C)C(=Nc3cccc(C(F)(F)F)c3)S2)cc1 (stereo not given)	nt	-0.52
O=S(=O)(NC1CC1)c1ccc(S(=O)(=O)N2CCCc3ccccc32)cc1	-0.45	nt
COc1cc2c(cc1OC)CN(S(=O)(=O)c1c(C)nn(C)c1C)CC2	0.3	0.69
CC(C)N(CC(N)=O)C(=O)/C=C/c1ccc(Cl)c(Cl)c1	1.4	nt
COc1cccc(OC)c1OC(=O)c1cc(C)ccc1C	0.85	nt
Cc1nn(CC(=O)NCCSCc2ccco2)c(C)c1Br	0.45	0.28
CCOC(=O)N1CCN(C(=O)COC(=O)C2=C(Nc3ccccc3)OCC2=O)CC1	-0.5	nt
O=C(NC(c1cccs1)c1ccc2cccnc2c1O)C1CCCCC1 (stereo not given)	1.1	-0.36

Of the compounds above, 13 contain fluorine.
SMILES	AID504770	Ba CapD inh
O=C(COC(=O)c1cccnc1Cl)c1ccc(F)cc1	0.6	-0.05
OC(CSc1ccccc1)CN1CCN(c2nccc(C(F)(F)F)n2)CC1 (stereo not given)	0.5	0.19
CCS(=O)(=O)CCc1nnc(NC(=O)Nc2cccc(C(F)(F)F)c2)s1	1.6	5.7
CCN(CC)c1nc(C(F)(F)F)nc2c1nnn2Cc1ccccc1	-0.15	nt
COc1cc(NC(=O)Cn2nc(C(F)(F)F)c(Br)c2C)cc([N+](=O)[O-])c1	nt	-0.38
CCOC(=O)N1CCC(NC(=O)c2cc(S(=O)(=O)NCCc3ccccc3)ccc2F)CC1	0.8	0.75
O=C(Cn1c(C(F)(F)F)nc2ccccc21)Nc1ccc(Cl)cc1	nt	-0.18
N#CC(c1cccc(C(F)(F)F)c1)N1CCOCC1 (stereo not given)	-1.1	-0.32
CC(=O)Nc1ccc(S(=O)(=O)N2CCCC(C(F)(F)F)C2)cc1 (stereo not given)	-1.2	-0.1
Cc1cc(Cl)ccc1OCCCC(=O)Nc1ccccc1C(F)(F)F	0.45	-0.2
O=C(c1c(F)cccc1F)N1CCN(c2ncc(-c3ccc(Cl)cc3)cn2)CC1	nt	-0.02
O=C(Nc1ccc(Cl)cc1)OCCS(=O)(=O)c1ccc(C(F)(F)F)cn1	-0.45	0.52
CCOC(=O)c1ccc(NC(=O)C2CC(=O)N(C)C(=Nc3cccc(C(F)(F)F)c3)S2)cc1 (stereo not given)	nt	-0.52
